Env fusion inh = HIV envelope-mediated fusion inhibition; HeLa-JRFL Env/CEM21 cell fusion, luciferase; AID 651610; inhibition, % at 12.3 µM; 360,000 tested, 1.1% active;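 active = mean replicate inhibition score of at least 50 and every replicate individually at or above 50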;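 also: 0% = plate neutral controls and 100% = maraviroc near 300 nM; one replicate is shown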
Yeast UUG start = modulators of start codon recognition fidelity in yeast; S. cerevisiae UUG-firefly luciferase reporter, luminescence/redox ratio; activity score, % at 18.7 µM; AID 602363; 350,000 tested, 0.13% active;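 active = replicate mean at a twofold rise or more, about +100% in these data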;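 also: firefly luciferase made from a UUG start codon reports start codon fidelity; reporter light over untreated wells divided by growth signal over untreated wells; some hits fall short of that in this replicate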
Active calls of the source: *; [ ] = another dose, or the depositor's remark. Not all compounds are listed (hit frequency here may not be typical).

SMILES	Env fusion inh	Yeast UUG start
C[C@@H]1CN([C@@H](C)CO)C(=O)Cc2cc(NC(=O)CCCN(C)C)ccc2O[C@H]1CN(C)CC1CCCCC1	-19.3[16.7 µM]	-31.9
Cc1noc(C)c1S(=O)(=O)Nc1ccc2c(c1)C(=O)N([C@H](C)CO)C[C@@H](C)[C@H](CN(C)CC1CCCCC1)OCCCC[C@@H](C)O2	-38.5[16.7 µM]	11.2
C[C@@H]1CN([C@@H](C)CO)C(=O)c2cc(NC(=O)Nc3ccccc3)ccc2O[C@@H](C)CCCCO[C@H]1CN(C)C(=O)c1ccccc1	30.3[16.7 µM]	-1.8
C[C@@H]1CN([C@H](C)CO)C(=O)c2cc(NC(=O)CCCN(C)C)ccc2O[C@H]1CN(C)C(=O)Nc1ccc(F)cc1	-2.5[16.7 µM]	-4.6
C[C@@H]1CCCCO[C@H](CN(C)S(=O)(=O)c2ccccc2)[C@@H](C)CN([C@H](C)CO)C(=O)c2cc(NS(=O)(=O)c3cn(C)cn3)ccc2O1	-3.9[16.7 µM]	-6.0
CN(C)C(=O)C[C@H]1CC[C@@H]2[C@H](COc3ccc(NC(=O)c4ccc(F)c(F)c4)cc3C(=O)N2C)O1	5.3[16.7 µM]	13.0
CNC(=O)C[C@@H]1CC[C@@H]2[C@@H](COc3ccc(NC(=O)NCc4ccccc4)cc3C(=O)N2C)O1	-19.2[16.7 µM]	8.4
N#C[C@@H]1[C@@H](c2ccc(-c3ccc(F)cc3)cc2)[C@H](CO)N1C(=O)Cc1ccccc1	8.1[16.7 µM]	-7.5
C[C@@H](NC(=O)C[C@H]1C=C[C@@H](NC(=O)C2CCOCC2)[C@@H](CO)O1)c1ccccc1	-5.6[16.7 µM]	-2.6
C[C@@H]1CN([C@@H](C)CO)S(=O)(=O)c2ccc(-c3cncnc3)cc2O[C@@H]1CN(C)C(=O)Cc1cccnc1	-17.8[16.7 µM]	-15.0
C[C@@H]1CN([C@H](C)CO)C(=O)c2cc(NC(=O)Nc3cccc4ccccc34)ccc2O[C@@H](C)CCCCO[C@H]1CN(C)Cc1ccccc1	15.7[16.7 µM]	36.7
Cc1noc(C)c1NC(=O)Nc1ccc2c(c1)C(=O)N([C@H](C)CO)C[C@@H](C)[C@H](CN(C)C(=O)Nc1cccc3ccccc13)OCCCC[C@@H](C)O2	7.7[16.7 µM]	10.2
Cc1noc(C)c1S(=O)(=O)N(C)C[C@H]1OCCCC[C@@H](C)Oc2ccc(NS(=O)(=O)c3ccccc3)cc2C(=O)N([C@@H](C)CO)C[C@H]1C	-25.1[16.7 µM]	9.5
C[C@@H]1CN([C@H](C)CO)C(=O)c2cc(C3=CCCCC3)cnc2O[C@H]1CN(C)Cc1ccncc1	-16.0[16.7 µM]	-6.9
Cc1noc(C)c1NC(=O)NCC[C@H]1CC[C@H](NC(=O)c2ccccc2)[C@@H](CO)O1	-6.8[16.7 µM]	-3.0
CCCC#Cc1ccc2c(c1)O[C@@H](CN(C)C(=O)NC(C)C)[C@H](C)CN([C@@H](C)CO)S2(=O)=O	4.0[16.7 µM]	10.8
C[C@@H]1CN([C@@H](C)CO)C(=O)c2cccc(NS(=O)(=O)c3ccccc3)c2O[C@H]1CN(C)Cc1ccc(Oc2ccccc2)cc1	-35.8[16.7 µM]	6.6
C[C@@H]1CCCCO[C@H](CN(C)S(=O)(=O)c2ccc(F)cc2)[C@H](C)CN([C@@H](C)CO)C(=O)c2cc(NC(=O)CCC(F)(F)F)ccc2O1	-38.5[16.7 µM]	1.3
Cc1noc(C)c1S(=O)(=O)N(C)C[C@@H]1Oc2ccc(NS(=O)(=O)c3ccccc3)cc2C(=O)N([C@H](C)CO)C[C@@H]1C	-23.4[16.7 µM]	9.7
CO[C@H]1CN(C)C(=O)c2ccc(NC(=O)NC(C)C)cc2OC[C@@H](C)N(C(=O)CN(C)C)C[C@H]1C	-11.3[16.7 µM]	-6.6

Full records, looked up by structure. Order of screens: Env fusion inh, Yeast UUG start
Results for C[C@@H]1CCCCO[C@H](CN(C)S(=O)(=O)c2ccc(F)cc2)[C@H](C)CN([C@@H](C)CO)C(=O)c2cc(NC(=O)CCC(F)(F)F)ccc2O1 : -38.5[16.7 µM], 1.3
Results for Cc1noc(C)c1S(=O)(=O)N(C)C[C@H]1OCCCC[C@@H](C)Oc2ccc(NS(=O)(=O)c3ccccc3)cc2C(=O)N([C@@H](C)CO)C[C@H]1C : -25.1[16.7 µM], 9.5

(cont.)
SMILES	Env fusion inh	Yeast UUG start
C[C@H](CO)N1C[C@H](C)[C@@H](CN(C)Cc2ccncc2)Oc2ncc(C#Cc3cccnc3)cc2C1=O	8.3[16.7 µM]	-7.7
C[C@H](CO)N1C[C@H](C)[C@@H](CN(C)S(C)(=O)=O)Oc2c(NC(=O)c3nc4ccccc4s3)cccc2C1=O	-3.8[16.7 µM]	12.4
CNC[C@H]1OCCCC[C@H](C)Oc2ccc(NC(=O)C3CCCCC3)cc2C(=O)N([C@@H](C)CO)C[C@@H]1C	18.2[16.7 µM]	8.5
CC(C)NC(=O)N(C)C[C@H]1Oc2ccc(NC(=O)Nc3cccc4ccccc34)cc2C(=O)N([C@H](C)CO)C[C@@H]1C	-2.0[16.7 µM]	-5.2
CCCC#Cc1ccc([C@@H]2[C@@H](C#N)N(C(=O)C3CCCC3)[C@H]2CO)cc1	7.2[16.7 µM]	18.8
CO[C@@H]1CN(C)C(=O)c2cc(NC(=O)NC(C)C)ccc2OC[C@@H](C)N(C(=O)CN(C)C)C[C@H]1C	-0.9[16.7 µM]	-3.8
COc1ccc(NC(=O)Nc2ccc3c(c2)C(=O)N([C@H](C)CO)C[C@H](C)[C@H](CN(C)C(=O)Nc2ccc(F)cc2)OCCCC[C@@H](C)O3)cc1	-8.6[16.7 µM]	-9.8
N#C[C@H]1[C@H](c2ccc(C#CCC3CCCC3)cc2)[C@H](CO)N1C(=O)c1ccccn1	-2.6[16.7 µM]	2.8
C[C@H]1CN([C@@H](C)CO)C(=O)c2cc(-c3ccccc3F)cnc2O[C@H]1CN(C)C	-18.4[16.7 µM]	-8.9
C[C@H](CO)N1C[C@H](C)[C@@H](CN(C)Cc2ccc3c(c2)OCO3)Oc2c(NC(=O)NC3CCCCC3)cccc2C1=O	-12.4[16.7 µM]	3.7

Some of the entries above in a different format:
Env fusion inh	Yeast UUG start	structure
7.2[16.7 µM]	18.8	CCCC#Cc1ccc([C@@H]2[C@@H](C#N)N(C(=O)C3CCCC3)[C@H]2CO)cc1
-0.9[16.7 µM]	-3.8	CO[C@@H]1CN(C)C(=O)c2cc(NC(=O)NC(C)C)ccc2OC[C@@H](C)N(C(=O)CN(C)C)C[C@H]1C
-8.6[16.7 µM]	-9.8	COc1ccc(NC(=O)Nc2ccc3c(c2)C(=O)N([C@H](C)CO)C[C@H](C)[C@H](CN(C)C(=O)Nc2ccc(F)cc2)OCCCC[C@@H](C)O3)cc1
-2.6[16.7 µM]	2.8	N#C[C@H]1[C@H](c2ccc(C#CCC3CCCC3)cc2)[C@H](CO)N1C(=O)c1ccccn1
-18.4[16.7 µM]	-8.9	C[C@H]1CN([C@@H](C)CO)C(=O)c2cc(-c3ccccc3F)cnc2O[C@H]1CN(C)C

(more compounds)
SMILES	Env fusion inh	Yeast UUG start
C[C@@H]1CN([C@@H](C)CO)C(=O)c2cc(-c3ccccc3)cnc2O[C@H]1CN(C)C(=O)c1ccccc1F	-3.5[16.7 µM]	17.3
COc1ccccc1S(=O)(=O)N[C@H]1CC[C@@H](CC(=O)N2CCCCC2)O[C@H]1CO	11.4[16.7 µM]	-30.5
C/C=C/c1cnc2c(c1)C(=O)N([C@@H](C)CO)C[C@H](C)[C@H](CN(C)Cc1ccncc1)O2	-44.6[16.7 µM]	1.0
C[C@@H]1CCCCO[C@@H](CN(C)C(=O)Nc2cccc3ccccc23)[C@H](C)CN([C@@H](C)CO)C(=O)c2cc(NC(=O)NC3CCCCC3)ccc2O1	31.0[16.7 µM]	-8.9
COCC#Cc1cnc2c(c1)C(=O)N([C@@H](C)CO)C[C@@H](C)[C@@H](CN(C)C)O2	-32.6[16.7 µM]	-7.0
Cc1cccc(S(=O)(=O)N[C@H]2CC[C@H](CCNS(=O)(=O)c3ccccc3F)O[C@H]2CO)c1	-17.0[16.7 µM]	26.4
Cc1noc(C)c1S(=O)(=O)Nc1ccc2c(c1)CC(=O)N([C@@H](C)CO)C[C@@H](C)[C@@H](CN(C)C(=O)NC(C)C)O2	14.3[16.7 µM]	8.4
C[C@@H]1CN([C@H](C)CO)C(=O)c2cc(NS(=O)(=O)c3ccccc3)ccc2O[C@@H]1CN(C)Cc1ccc2c(c1)OCO2	3.9[16.7 µM]	-3.9
COc1ccc(S(=O)(=O)Nc2ccc3c(c2)C(=O)N([C@@H](C)CO)C[C@@H](C)[C@H](CN(C)CC2CC2)OCCCC[C@H](C)O3)cc1	-8.3[16.7 µM]	3.3
O=C(C[C@@H]1C=C[C@@H](NC(=O)Nc2cc(F)ccc2F)[C@H](CO)O1)NCc1ccncn1	2.4[16.7 µM]	-8.1
C[C@@H]1CN([C@H](C)CO)C(=O)Cc2cc(NC(=O)Nc3ccccc3)ccc2O[C@H]1CN(C)S(=O)(=O)c1ccccc1	-6.0[16.7 µM]	-14.0
C[C@H](CO)N1C[C@H](C)[C@H](CN(C)Cc2ccccc2)Oc2ccc(NC(=O)CCN3CCOCC3)cc2C1=O	15.9[16.7 µM]	3.5
COC(=O)C[C@H]1CC[C@@H]2[C@H](COc3ccc(NC(=O)c4ccc(F)c(F)c4)cc3C(=O)N2C)O1	9.9[16.7 µM]	10.2
CNC[C@@H]1Oc2ccc(NS(=O)(=O)c3cccs3)cc2CC(=O)N([C@H](C)CO)C[C@@H]1C	-10.1[16.7 µM]	-7.3
O=C(N[C@@H]1CC[C@@H](CCNC(=O)C2CCCC2)O[C@H]1CO)c1ccccn1	2.0[16.7 µM]	-2.1
C[C@@H]1CN([C@H](C)CO)C(=O)c2cc(NS(C)(=O)=O)ccc2O[C@@H]1CN(C)C(=O)Nc1ccc(C(F)(F)F)cc1	-17.0[16.7 µM]	3.5
C[C@H]1CN([C@@H](C)CO)C(=O)Cc2cc(NS(=O)(=O)c3cn(C)cn3)ccc2O[C@@H]1CN(C)C(=O)NC1CCCCC1	-13.7[16.7 µM]	-23.2
C[C@H](CO)N1C[C@H](C)[C@H](CN(C)S(=O)(=O)c2cccc(F)c2)Oc2ncc(C#Cc3ccccc3)cc2C1=O	6.8[16.7 µM]	12.7
C[C@@H]1CCCCO[C@@H](CN(C)C(=O)C2CCCCC2)[C@@H](C)CN([C@H](C)CO)C(=O)c2cc(NC(=O)Nc3ccc4c(c3)OCO4)ccc2O1	6.0[16.7 µM]	-16.0
CCNC(=O)Nc1ccc2c(c1)C(=O)N(C)[C@H]1CC[C@@H](CC(=O)NCc3cccc(F)c3)O[C@@H]1CO2	-9.3[16.7 µM]	-0.8
C[C@H](CO)N1C[C@H](C)[C@H](CN(C)S(=O)(=O)c2ccc(F)cc2)OCCCC[C@H](C)Oc2ccc(N(C)C)cc2C1=O	11.7[16.7 µM]	47.2
CC(C)NC(=O)Nc1ccc2c(c1)C(=O)N([C@@H](C)CO)C[C@@H](C)[C@@H](CN(C)S(=O)(=O)c1cccs1)OCCCC[C@@H](C)O2	13.7[16.7 µM]	19.2
C[C@@H]1CN([C@@H](C)CO)C(=O)c2cc(NC(=O)Nc3ccc(F)cc3)ccc2O[C@H]1CN(C)S(C)(=O)=O	-3.2[16.7 µM]	-3.9
COc1cccc(S(=O)(=O)N[C@@H]2CC[C@H](CC(=O)NC3Cc4ccccc4C3)O[C@H]2CO)c1	1.8[16.7 µM]	-7.3
CN(C)C(=O)C[C@H]1CC[C@H]2[C@@H](COc3ccc(NS(=O)(=O)c4cccc(F)c4)cc3C(=O)N2C)O1	4.2[16.7 µM]	-0.5
O=C(CCN1CCCCC1)N[C@H]1CC[C@H](CCNS(=O)(=O)c2ccc(F)cc2)O[C@@H]1CO	15.8[16.7 µM]	-3.1
C[C@@H]1CCCCO[C@@H](CN(C)C(=O)c2ccccc2)[C@@H](C)CN([C@H](C)CO)C(=O)c2cc(NC(=O)CCCN(C)C)ccc2O1	-9.6[16.7 µM]	-6.0
O=C(C[C@H]1CC[C@@H]2[C@H](COC[C@H](O)CN2C(=O)Nc2cc(Cl)cc(Cl)c2)O1)N1CCOCC1	13.8[16.7 µM]	-1.3
C[C@@H]1CN([C@@H](C)CO)C(=O)c2cc(NC(=O)C3CCCCC3)ccc2O[C@@H](C)CCCCO[C@H]1CN(C)Cc1ccc(Cl)c(Cl)c1	-6.6[16.7 µM]	12.0
CCCNC(=O)N(C)C[C@H]1Oc2cc(-c3ccc(C)cc3)ccc2S(=O)(=O)N([C@@H](C)CO)C[C@@H]1C	-15.1[16.7 µM]	9.7
Cc1ccccc1CN(C)C[C@@H]1OCc2cn(nn2)CCCC(=O)N([C@@H](C)CO)C[C@@H]1C	-2.3[16.7 µM]	3.9
CNC[C@H]1OCCCC[C@H](C)Oc2ccc(NC(=O)Nc3ccc4c(c3)OCO4)cc2C(=O)N([C@@H](C)CO)C[C@@H]1C	-1.8[16.7 µM]	15.7
C[C@@H]1CN([C@H](C)CO)C(=O)c2cc(NC(=O)CCCN(C)C)ccc2O[C@@H](C)CCCCO[C@@H]1CN(C)C(=O)Nc1ccccc1	-2.6[16.7 µM]	2.0
N#C[C@H]1[C@@H](c2ccc(C#CC3(O)CCCC3)cc2)[C@H](CO)N1C(=O)C1CCC1	-2.4[16.7 µM]	15.0
NC(=O)NCC#Cc1ccc2c(c1)[C@]1(C(=O)N2)[C@H](C(=O)O)[C@H]2C(=O)O[C@H](c3ccccc3)[C@H](c3ccccc3)N2[C@@H]1c1ccc(O)cc1	-8.0[16.7 µM]	-1.1
Cc1noc(C)c1S(=O)(=O)Nc1ccc2c(c1)C(=O)N([C@@H](C)CO)C[C@H](C)[C@@H](CN(C)S(=O)(=O)c1ccc(Cl)cc1)OCCCC[C@H](C)O2	21.9[16.7 µM]	-24.4
